Compound activity as filed in PubChem.
Rce1 inhib – yeast Rce1p protease inhibitors, primary screen, biochemical, fluorescence, cell-free homogeneous; CAAX prenyl protease 2 (Saccharomyces cerevisiae (strain ATCC 204508 / S288c)), Q03530; 290,000 tested, 0.27% active; calls only; yeast membranes, quenched prenylated peptide cleavage fluorescence;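 active means fall in fluorescence gain of 50% or more versus controls, with final raw signal at or below 3038400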;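 further: plate controls were neutral control wells for no effect and wells lacking membranes for full effect; tested at 10 µM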
Env fusion inh – inhibitors of HIV-1 Env-driven cell-cell fusion, primary screen, HeLa-JRFL effector, CEM21 target cells, luciferase | inhibition, % at 12.3 µM | 360,000 tested, 1.1% active;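 active means mean replicate inhibition score of at least 50 and every replicate individually at or above 50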;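 further: 0% = plate neutral controls and 100% = maraviroc near 300 nM; one replicate is shown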
CSC inhib – cancer stem cell viability inhibitors, primary screen, luminescence; cancer stem cell-like cells viability; inhibition, % at 7.5 µM; 300,000 tested, 1.1% active; AID 2717, 2010;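 active means mean at 75% or more and at least half the replicates too; tested in HMLE shEcad cells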;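 further: 0% = median of negative and 100% = median of positive control wells; the first replicate is given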
UUG fidelity – modulators of yeast start codon fidelity, primary screen, whole organism, S. cerevisiae, single point, plate reader; S. cerevisiae UUG-firefly luciferase reporter, luminescence/redox ratio; activity score, % at 18.7 µM; 350,000 tested, 0.13% active; AID 602363, 2012;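 active means replicate mean at a twofold rise or more, about +100% in these data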;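 further: firefly luciferase made from a UUG start codon reports start codon fidelity; reporter light over untreated wells divided by growth signal over untreated wells; some hits fall short of that in this replicate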
eIF4H inh – human eIF4H binding inhibitors, primary screen, translation initiation inhibitor project, biochemical, uHTS, fluorescence polarization | 290,000 tested, 0.94% active | inhibition, % at 35 µM | eIF4H fluorescence polarization binding assay | Eukaryotic translation initiation factor 4H (Homo sapiens), Q15056 | AID 2012, 2009;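 active means 50% or more with normal probe brightness, or confirmed in later tests; about a fifth of its hits are not listed in these tables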;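 further: calls also rest on retests at 20 µM and on dose response follow-up; 0% = protein and probe with vehicle and 100% = probe without protein; strong numbers were not always called active; many hits fall short of the cut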
MT1-MMP act inh – blockers of MT1-MMP proenzyme processing, primary screen, HT1080 RFP-PRO-GFP cells, GFP/RFP fluorescence. 360,000 tested, 0.061% active. GFP/RFP ratio fluorescence, overnight; percent of plate control window, DMSO zero. AID 651647, 2012. GFP/RFP ratio change, % at 20 µM. Matrix metalloproteinase-14 (Homo sapiens), P50281;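 active means GFP/RFP ratio change of at least 30% with cell ATP level not reduced by more than half and red fluorescence within 50% of control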; further: strong numbers were not always called active
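Material – HT1080 RFP-PRO-GFP cells · Control set – DMSO wells and RFP-L50D-GFP cells · Incubation – overnight cell settling, then overnight compound exposure, 37 °C, 5% CO2 · Compound dosing – single-point 20 µM compound, 1% DMSO · Read-out – GFP/RFP fluorescence ratio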
PABP polyA inh – PABP poly(A) RNA binding inhibitors, primary screen, biochemical, fluorescence polarization, uHTS; Polyadenylate-binding protein 1 (Homo sapiens), P11940; inhibition, % at 35 µM; 290,000 tested, 1% active; AID 2014, 2009;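 active means 50% or more with normal probe brightness, or confirmed in later tests; about a fifth of its hits are not listed in these tables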;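 further: calls also rest on retests at 20 µM and on dose response follow-up; controls were probe without protein and protein plus probe with vehicle; some compounds called inactive have numbers as strong as hits; many hits fall short of the cut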
Target sequence (P11940 whole entry, looked up): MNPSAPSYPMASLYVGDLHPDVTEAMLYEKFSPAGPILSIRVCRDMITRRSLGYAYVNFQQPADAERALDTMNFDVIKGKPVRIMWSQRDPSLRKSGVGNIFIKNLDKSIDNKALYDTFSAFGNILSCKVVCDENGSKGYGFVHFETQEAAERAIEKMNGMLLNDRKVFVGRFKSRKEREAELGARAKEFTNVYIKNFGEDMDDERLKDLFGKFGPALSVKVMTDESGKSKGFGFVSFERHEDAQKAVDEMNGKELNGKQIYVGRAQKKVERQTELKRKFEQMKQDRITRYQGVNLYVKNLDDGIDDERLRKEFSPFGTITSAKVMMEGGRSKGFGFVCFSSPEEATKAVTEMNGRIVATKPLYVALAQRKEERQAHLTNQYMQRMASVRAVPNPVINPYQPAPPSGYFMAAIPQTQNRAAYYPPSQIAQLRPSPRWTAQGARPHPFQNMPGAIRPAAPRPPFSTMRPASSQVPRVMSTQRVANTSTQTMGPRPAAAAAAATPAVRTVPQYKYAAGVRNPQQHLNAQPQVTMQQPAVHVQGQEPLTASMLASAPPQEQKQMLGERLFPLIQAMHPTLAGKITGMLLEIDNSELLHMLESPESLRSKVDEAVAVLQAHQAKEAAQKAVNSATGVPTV
eIF4H inh retest – second read-out of eIF4H inh, no call of its own (marks repeat the call); inhibition, %; compound at 20 µM; confirmation average;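 mean of two retest wells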
PABP polyA inh retest – second read-out of PABP polyA inh, no call of its own (marks repeat the call); inhibition, %; compound at 20 µM; confirmation repeats;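 mean of two retest wells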
MT1-MMP act inh RFP – also measured in MT1-MMP act inh; calls as there; RFP signal change, %; measured here: RFP expression control read;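 0 = vehicle wells; hits needed this value within 50% of zero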
The depositor's hits bear a star; i = inactive; / = no result given; & = joins results of further samples.

SMILES	Rce1 inhib	Env fusion inh	CSC inhib	UUG fidelity	eIF4H inh	MT1-MMP act inh	MT1-MMP act inh RFP	PABP polyA inh	others
CCc1ccc(OCC(=O)N2CCN(c3ccccc3F)CC2)cc1	i	8	14	/	-6	0	3	-10
CCOc1ccc(S(=O)(=O)Nc2ccc(C(=O)N3CCCC3)cc2)cc1C(N)=O	i	-6	2	-23	12	5	2	14
COc1ccc(-c2n[nH]c(=S)n2-c2ccc3c(c2)OCCO3)cc1	/	6	-20	-21	-3	0	4	-1
FC(F)(F)c1cnc(NNC(=S)Nc2ccccc2Cl)c(Cl)c1	i	33	49	-27	11	-5	-29	-4
CC1Cc2cc(/C(O)=C3/C(=O)C(=O)N(CCCn4ccnc4)C3c3ccc(F)cc3)ccc2O1 (stereo unspecified)	i	-5	5	-21	-7	3	4	8
CC(=O)Nc1cc(C(=O)O)ccc1S(=O)(=O)c1ccc(Cl)cc1	i	13	-5	-22	3	3	0	-2
COc1ccc(NC(=S)NCCc2c[nH]c3ccccc23)cc1	i	-5	-3	-25	-8	0	2	8
COc1cccc(NC(=O)Cc2nnc(SCC(=O)c3ccccc3)n2C)c1	i	/	/	-8	-4	0	-1	10
NC(=O)c1ccc(NC(=O)c2ccc(COc3ccccc3Br)cc2)cc1	/	-26	/	-5	/	1	1	/
Cc1cccc(NC(=S)NC(=O)c2ccco2)n1	i	-53	-11	/	-5	0	2	-8
Cc1cc(C(=O)NNC(=O)c2ccc(C(F)(F)F)cc2)no1	i	-7	-1	/	3	-5	-1	-6
COC(=O)COc1ccc(S(=O)(=O)NCCC2=CCCCC2)cc1Cl	i	-31	-3	-9	-5	3	2	2
O=C(COC(=O)c1cccnc1Cl)NCc1ccc(F)cc1	/	/	-9	10	/	1	5	/
CCC(=O)Nc1ccc(-c2csc(NNC(C)=O)n2)cc1	i	-15	/	/	-2	1	5	-4
COc1ccc(CC(=O)OCC(=O)Nc2ccc(OC(F)F)cc2)cc1OC	/	3	-4	-33	/	7	5	/
CCCOP(=O)(OCCC)C(Nc1ccc(C(=O)O)cc1)c1ccccc1 (stereo unspecified)	i	13	-12	/	1	1	5	-2
N#C/C(C(N)=O)=C1/SC(Cc2ccc(F)cc2)C(=O)N1c1ccccc1 (stereo unspecified)	i	25	27	/	-1	-98	-3	4
COc1cccc(-c2ccc3c(c2)O[C@@H](CN(C)C(=O)C2CCOCC2)[C@H](C)CN([C@H](C)CO)S3(=O)=O)c1	/	8	/	12&19	/	0	5	/
O=C1CCCC/C=C\C[C@H](CC(=O)N(CCO)Cc2ccccc2)C(=O)N[C@@H](Cc2ccccc2)CO1	/	-55	-12	8	/	2	4	/
O=C(Nc1ccccc1Oc1ccccc1)c1cc([N+](=O)[O-])ccc1Cl	i	7	1	-18	-7	-5	-1	-1
Cc1ccc(N2CC(C(=O)Nc3cccc(F)c3)CC2=O)cc1 (stereo unspecified)	i	/	-15	4	-11	2	-1	-4
O=C(CN1CCc2ccccc2C1)Nc1ccccc1C(F)(F)F	/	7	-10	1	-3	-4	0	0
COc1ccc(C2NC(=O)C(=O)/C2=C(\O)c2ccc(Cl)cc2)cc1OC (stereo unspecified)	i	-31	-8	/	0	2	1	10
Cc1ccc(C(=O)Oc2cccc(NC(=O)c3ccccc3)c2)cc1C	i	-6	10	/	-12	1	2	0
CC(C)c1ccc(NC2CCCN(C(=O)CC3CCCC3)C2)cc1 (stereo unspecified)	i	16	5	-4	-2	-3	-6	12

Gathered by group: the entries above with a COOH group
SMILES	Rce1 inhib	Env fusion inh	CSC inhib	UUG fidelity	eIF4H inh	MT1-MMP act inh	MT1-MMP act inh RFP	PABP polyA inh	others
CC(=O)Nc1cc(C(=O)O)ccc1S(=O)(=O)c1ccc(Cl)cc1	i	13	-5	-22	3	3	0	-2
CCCOP(=O)(OCCC)C(Nc1ccc(C(=O)O)cc1)c1ccccc1 (stereo unspecified)	i	13	-12	/	1	1	5	-2

In the list so far, these have an NH in an aromatic ring:
SMILES	Rce1 inhib	Env fusion inh	CSC inhib	UUG fidelity	eIF4H inh	MT1-MMP act inh	MT1-MMP act inh RFP	PABP polyA inh	others
COc1ccc(-c2n[nH]c(=S)n2-c2ccc3c(c2)OCCO3)cc1	/	6	-20	-21	-3	0	4	-1
COc1ccc(NC(=S)NCCc2c[nH]c3ccccc23)cc1	i	-5	-3	-25	-8	0	2	8

(more compounds)
SMILES	Rce1 inhib	Env fusion inh	CSC inhib	UUG fidelity	eIF4H inh	MT1-MMP act inh	MT1-MMP act inh RFP	PABP polyA inh	others
Cc1cc(Cl)ccc1C(=O)C1CCCN(C(=O)c2n[nH]c3c2CCCC3)C1 (stereo unspecified)	i	22	0	/	-11	3	-2	-3
C=CCOc1cccc(/C=C/c2nc3ccccc3c(=O)[nH]2)c1	i	-112	12	-18	-3	-1	-1	23
CN(C(=O)c1ccccc1F)C(c1ccccc1)c1ccccc1	i	12	-7	-6	-15	-8	-6	3
Cc1cccc(C)c1Cn1c(C)c(C(=O)NCc2ccccc2C(F)(F)F)sc1=O	/	-13	/	-3	/	1	-12	/
CCOC(=O)N1CCN(C(=O)CSc2nc3nc(C)cc(C)n3n2)CC1	/	32	/	-17	/	1	2	/
COc1ccc(S(=O)(=O)Nc2ccc(C)cn2)cc1	/	-3	-16	-16	-9	6	5	-3
CSCCC(NC(=O)c1ccccc1)C(=O)NCc1ccc(S(N)(=O)=O)cc1 (stereo unspecified)	i	1	-20	-4	1	-2	1	15
Cc1cccc(C(=O)Nc2ccccc2N2CCN(c3ccc(F)cc3)CC2)c1	/	13	/	-10	-6	-3	-9	16
Cc1cccc(C)c1NS(=O)(=O)c1ccc2c(c1)C(=O)c1ccccc1C2=O	i	7	5	1	8	11	-5	4
COc1ccc(NC(=O)c2cc(C3CCCCN3C(=O)c3cc(F)ccc3C)on2)c(C)c1 (stereo unspecified)	/	41	/	6	/	-4	-11	/
CC(C)CN(C(=O)CSc1nncn1-c1ccccc1)c1c(N)n(CC(C)C)c(=O)[nH]c1=O	i	9	-14	-16	1	-4	0	-2
O=C(COc1ccccc1)Nc1ccccc1N1CCN(c2ccc(F)cc2)CC1	i	/	6	-20	-9	-3	-3	-3
CCOc1ccc(S(=O)(=O)N2CCOCC2)cc1NC(=O)c1ccccc1F	i	5	-14	-22	-2	-2	1	6
Cc1cccc(OCc2nc(-c3ccc(Br)o3)no2)c1	i	-2	8	-8	-4	-1	7	1
CC(Sc1n[nH]c(N)n1)C(=O)Nc1ccc(Cl)cn1 (stereo unspecified)	i	-9	0	-19	-3	-2	0	-6
Cc1ccccc1NC(=S)N(C)C1(c2ccccc2Cl)CCCCC1=O (stereo unspecified)	i	-13	0	-15	4	-8	-8	-6
CCCCn1c(N)c(N(CC(C)C)C(=O)c2cccc(S(=O)(=O)N3CCCCCC3)c2)c(=O)[nH]c1=O	i	20	-1	-4	1	0	2	-1
CCOCCCN1CN(Cc2ccco2)CNC1=S	i	-6	-7	/	0	2	1	1
COc1cccc(-c2ncc3ccccc3c2COC(=O)c2cccc(Br)c2)c1	/	22	12	-21	/	5	-5	/
COC(=O)C(C)Sc1nc2c([nH]c3ccccc32)c(=O)n1C (stereo unspecified)	i	-36	-15	/	-11	-7	0	9
CCOC(=O)N1CCN(C(=O)CCNS(=O)(=O)c2ccc3c(c2)c(=O)n(C)c(=O)n3C)CC1	i	11	12	/	5	3	6	-2
Cn1c(C(O)c2ccccc2)nc(Cl)c1Cl (stereo unspecified)	i	-57	-6	16	5	4	4	3
CCOc1ccc(S(=O)(=O)Nc2cccc(C(=O)NCC(c3ccco3)N(C)C)c2)cc1 (stereo unspecified)	i	-3	-5	-5	/	3	-3	/
CCOC(=O)c1ccc2nc(C)c(CC)c(Cl)c2c1	i	42	0	-4	1	1	1	-2
CCCc1nn(C)c2c(=O)[nH]c(-c3cc(S(N)(=O)=O)ccc3OCC)nc12	i	2	0	-8	-6	-2	-2	-5

Arranged by count of non-hydrogen atoms (high to low): four of the compounds above.
SMILES	Rce1 inhib	Env fusion inh	CSC inhib	UUG fidelity	eIF4H inh	MT1-MMP act inh	MT1-MMP act inh RFP	PABP polyA inh	others
COc1ccc(NC(=O)c2cc(C3CCCCN3C(=O)c3cc(F)ccc3C)on2)c(C)c1 (stereo unspecified)	/	41	/	6	/	-4	-11	/
COc1cccc(-c2ncc3ccccc3c2COC(=O)c2cccc(Br)c2)c1	/	22	12	-21	/	5	-5	/
CCOC(=O)N1CCN(C(=O)CSc2nc3nc(C)cc(C)n3n2)CC1	/	32	/	-17	/	1	2	/
CCOC(=O)c1ccc2nc(C)c(CC)c(Cl)c2c1	i	42	0	-4	1	1	1	-2

Next part.
SMILES	Rce1 inhib	Env fusion inh	CSC inhib	UUG fidelity	eIF4H inh	MT1-MMP act inh	MT1-MMP act inh RFP	PABP polyA inh	others
CCCn1c(-c2ccccc2)nc2c(=O)n(C)c(=O)[nH]c21	i	/	10	-8	-9	5	3	-1
COc1c(Cl)cc(Cl)cc1C(=O)Nc1ccc(CN2CCCCC2)cc1	i	21	72	/	-9	3	-1	-2
Cc1[nH]nc2c1C1(CCN(Cc3ccccc3)CC1)C(C#N)=C(N)O2	i	-64	25	-18	90	-29	3	108	eIF4H inh retest=4;PABP polyA inh retest=-3
O=C(CO/N=C/c1ccccc1Cl)N1CCCc2ccccc21	i	2	-5	-33	2	4	5	-5
Cc1cc(C)nc(SCc2ccc(C(=O)N/N=C3\CC(C)CC(C)(C)C3)cc2)n1 (stereo unspecified)	i	/	-12	-11	4	2	2	2
COc1cc(C2CC(=O)Oc3cc(C)c(Cl)c(C)c32)cc(OC)c1OC (stereo unspecified)	/	-7	/	7	/	2	0	/
Cc1ccc(-n2nc(C(=O)c3ccccc3)n3c(=O)c(Cc4ccccc4)nnc23)cc1	i	-266	-7	-6	/	5	-11	/
COc1ccc(S(=O)(=O)Nc2ccc(-n3cccc3)cc2)cc1	i	-3	1	-5	3	0	1	1
COc1ccc(/C=C/C(=O)N2CCN(c3ccccn3)CC2)c(OC)c1OC	i	4	-11	24	0	1	-2	10
Cc1occc1-c1nnc(SCC(=O)Nc2nc3ccccc3s2)o1	i	/	6	-24	-4	-2	-2	0
O=C(O)c1ccccc1C(=O)N(c1ccccc1)c1ccccc1	i	7	7	/	/	-6	0	/
Cc1ccc(C)c(NC(=O)COC(=O)c2nc(Cl)ccc2Cl)c1	/	-5	-8	-14	/	3	8	/
O=C(CSc1nnnn1-c1cccc2c1CCCC2)NC1CCCC1	i	/	/	/	-4	1	-5	-4
